# From PubChem
# gsp ag: activates gsp, the McCune-Albright syndrome mutation. gsp mutant cells, cAMP HTRF, 30 min; control for the full effect not named in the record. actives 0.13% (n = 340,000). Potency, µM (doses to about 76.9 µM), for inactives: at the top dose activation (cAMP increase), usual class: activators; active = well fitted activation curve with a large enough effect; inconclusive = small, poorly fitted or top-dose-only effect, or another doubt; inactive = no such curve, though single readings can be large or run the other way; cell line not stated here;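 note: phosphodiesterase inhibitor Ro 20-1724 added with compounds to block cAMP breakdown; potency is the fitted concentration of half-maximal effect; nearly all actives have a fitted effect of over 60% in size; about a fifth of the inactives were tested at one dose only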
#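 Cells stably selected in G418 were plated at 2000/well, grown 16-24 hr, then given compounds in DMSO with the PDE inhibitor […] (300 uM solution added) for 30 min at 37C; cAMP was read by HTRF.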
# Sfp PPTase inh: Sfp phosphopantetheinyl transferase inhibition | Potency, µM, for the others: max response, negative = inhibition, most hits filed as inhibitors | Biochemical Sfp PPTase activity, qHTS | actives 3.5% (n = 310,000); active = well fitted inhibition curve with a large enough effect; inconclusive = small, poorly fitted or top-dose-only effect, or another doubt; inactive = no such curve, though single readings can be large or run the other way;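 note: the enzyme is Sfp with the accession as filed and its product quenches rhodamine fluorescence; potency is the fitted concentration of half-maximal effect; 0% = enzyme reaction without inhibitor and -100% = no enzyme wells; top concentration of the series not given in the record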
#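 Fluorescence-quenching assay: 15 nM Sfp-PPTase preincubated 15 min at room temperature with compound, then 5 uM rhodamine-CoA and 12.5 uM BHQ-2-labelled YbbR peptide added. Fluorescence (ex 525/em 598 nm) read at start and after 30 min; difference gives rate.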
# gsp antagonist: gsp mutant antagonism | gsp-mutant cells, cAMP HTRF, 30 min; control for the full effect not named in the record | Potency, µM (series often up to 76.9 µM), for inactives: top-dose activity change, negative = inhibition, usual class: inhibitors | actives 0.4% (n = 340,000) | AID 624288; active = falling curve of any shape with a large fitted effect; inconclusive = falling curve, mostly with a smaller effect; inactive = flat or rising curve; cell line not stated here;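 note: intracellular cAMP measured with PDE inhibitor Ro 20-1724 present during compound exposure; potency is the fitted concentration of half-maximal effect; % is set by controls: 0 for no effect and ±100 for the full control effect; nearly all actives have a fitted effect of over 65% in size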
#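 Cells, 2000/well, grown 16–24 h in DMEM 10% FBS with 0.5 mg/ml G418, then compounds plus […] (300 uM addition stock), 30 min at 37C. cAMP read by HTRF (cAMP-d2 and anti-cAMP antibody-K in lysis buffer) after 30 min RT.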
# TRPV1 potentiator: potentiators of human vanilloid receptor 1 (TRPV1); actives 0.02% (n = 320,000); potentiation, % at 8.33 µM; Q8NER1; AID 540277; TRPV1-expressing cells, Fluo-8 calcium influx, capsaicin EC20 potentiation; host cell line not named in the record; control for the full effect not named in the record; active means potentiation above 80%; inconclusive means 30% to 80%; inactive means below 30%; note: 0% is about no effect
#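 Fluo-8 calcium influx in TRPV1-expressing cells, kinetic read (ex 480/em 520 nm). Compound added and read 3 min for agonist activity, followed by capsaicin at EC20 final and 2 min further read for enhancement.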
# D2 potentiator: potentiates the human D2 dopamine receptor allosterically | P14416 | DiscoveRx D2 beta-arrestin cells, luminescence, 90 min; 100% = 57 uM dopamine signal | potentiation, % (concentration not given with the values) | actives 0.23% (n = 360,000); active = potentiation of 50% or more; inconclusive = 30% to 50%; inactive = 30% or less;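 note: compound concentration not given in the record; tested on top of an EC20 dose of dopamine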
# Target sequence (P14416 whole entry, looked up): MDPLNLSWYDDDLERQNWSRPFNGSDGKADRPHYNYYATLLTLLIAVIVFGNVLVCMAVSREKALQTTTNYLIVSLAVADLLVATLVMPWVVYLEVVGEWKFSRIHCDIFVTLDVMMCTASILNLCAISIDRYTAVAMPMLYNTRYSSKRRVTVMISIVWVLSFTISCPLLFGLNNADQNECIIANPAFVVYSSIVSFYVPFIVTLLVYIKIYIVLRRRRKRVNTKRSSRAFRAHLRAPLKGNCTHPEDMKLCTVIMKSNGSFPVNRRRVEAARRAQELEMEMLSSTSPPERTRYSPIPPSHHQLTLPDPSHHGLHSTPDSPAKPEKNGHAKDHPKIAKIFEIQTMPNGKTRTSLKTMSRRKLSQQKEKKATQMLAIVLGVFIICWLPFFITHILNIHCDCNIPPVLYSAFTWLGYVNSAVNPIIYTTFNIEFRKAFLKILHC
#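 PathHunter beta-arrestin assay in DiscoveRx D2 cells. Compounds were added with an EC20 of dopamine (50 nM final) for 90 min at 37 deg C. Luminescence was read 1 h after detection reagent, with 57 uM dopamine as the EC100 control.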
# Menin MLL FP FL: inhibitors of human menin-MLL interaction, wild-type MLL peptide. FP activity change, % at 61.4 µM. 290,000 tested, under 10 active. Fluorescence polarization, fluorescein-MLL peptide displacement from menin; inconclusive = falling polarisation curve, or a change in total fluorescence; inactive = total fluorescence flat and polarisation flat or rising; no compound was filed as active; the % refers to the polarisation; negative = inhibition;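 note: % of control where 0% means no effect; inhibitors lower the polarisation; unlabelled MLL peptide was the positive control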
# ClpP mod: qHTS Assay for Activators of ClpP. ATP-dependent Clp protease proteolytic subunit (Bacillus subtilis (strain 168)), P80244. purified B. subtilis ClpP, FRET peptide cleavage, 20 min. Potency, µM (top dose mostly 57.5 µM), without a hit: top-dose activity change, negative = active. actives 1.9% (n = 340,000); active = well fitted falling curve with a large enough effect; inconclusive = small, poorly fitted or top-dose-only effect; inactive = no such curve, though single readings can be large or run the other way; note: potency is the fitted concentration of half-maximal effect; the source files actives as falling curves though it sought activators and does not explain the sign; nearly all actives have a fitted effect of over 65% in size; many hits overshoot -100%
# Target sequence (P80244 whole entry, looked up): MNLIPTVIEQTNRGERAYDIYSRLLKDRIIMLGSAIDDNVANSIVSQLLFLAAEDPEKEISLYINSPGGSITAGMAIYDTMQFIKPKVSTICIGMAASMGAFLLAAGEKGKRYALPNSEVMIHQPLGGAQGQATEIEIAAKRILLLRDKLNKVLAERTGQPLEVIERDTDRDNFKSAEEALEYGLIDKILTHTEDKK
#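 ClpP 10 microg/mL final, pH 8 Tris/KCl buffer with BSA, glycerol, Tween-20; compound pinned in; FRET-FV substrate; RT 20 min; Ex320/Em430; ΔFRET vs ADEP 5.8 microM, DMSO, no enzyme.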
# Numbers without * were called inactive; u = inconclusive; x = not tested or not shown; [ ] = another dose, or the depositor's remark.
SMILES,gsp ag,Sfp PPTase inh,gsp antagonist,TRPV1 potentiator,D2 potentiator,Menin MLL FP FL,ClpP mod
CCOC(=O)c1sc2nc(C)nc(SCC(N)=O)c2c1C,11%[15.4 µM],12%,0%,25,-7,3.7,-3.1%
O=C(CC1CCCC1)N1CCN(S(=O)(=O)c2c(F)cccc2F)CC1,-16%,x,x,x,-5,x,1.7%
Cc1ccc(S(=O)(=O)NC2CCCCCC2)cc1C(N)=O,-11%,7%,2%,u,-5,-5.6,0.2%
O=c1nc(Nc2ccc(Br)cc2)sc2ccc([N+](=O)[O-])cc12,8%,u,-21%,-2,-22,-1.1,-1.7%
Cc1ccc(C)c2[nH]c(=O)c(CN(Cc3cccnc3)C(=S)NCc3ccco3)cc12,3%,-20%,-17%,4,-11,4.2,-26%
O=C(CCCc1nc2ccccc2s1)NCc1ccccc1,5%,9%,-2%,-22,-14,-0.1,-4.6%
COc1cc(SC)ccc1C(=O)NCCN1CCOCC1,-4%[15.4 µM],-8%,7%,x,-15,1.9,-0.4%
O=C1CC(Sc2nnnn2C2CCCCC2)C(=O)N1c1ccccc1 (stereo not given),u,u,9%,-5,-8,-0.3,-0.1%
COc1cccc(CN(C)CC(=O)Nc2ccccc2N2CCOCC2)c1OC,-26%,7%,1%,-12,6,0.6,-0.2%
Cc1ccc(S(=O)(=O)N2CCN(C(=O)C3CSC4(C)CCC(=O)N34)CC2)cc1C (stereo not given),-59%[inhibitor],x,13%,19,-8,x,-20%
C=CCc1cc(C)ccc1OCCOCCn1ccnc1,10%[15.4 µM],-18%,6%,-3,-5,3.4,-1.8%
Cc1cc(=O)[nH]c(SC(C)C(=O)Nc2cccc3ccccc23)n1 (stereo not given),10%,8%,3%,13,2,-3.0,x
COc1ccc(C(=O)N2N=C3CC(C)(C)OCC3C2c2ccccc2)cc1 (stereo not given),-17%[15.4 µM],13%,3%,-5,18,6.6,1.1%
Cn1nnnc1SCC(=O)Nc1ccccc1Cl,15%,15%,-3%,-2,-12,0.9,-5.8%
Cn1cc(/C=N/n2cnc3scc(-c4ccc(Cl)cc4)c3c2=O)c2ccccc21,-27%,u,30%,-3,1,-0.1,-14%

# Copied from the results shown (15 entries):
SMILES,gsp ag,Sfp PPTase inh,gsp antagonist,TRPV1 potentiator,D2 potentiator,Menin MLL FP FL,ClpP mod
CCOC(=O)c1sc2nc(C)nc(SCC(N)=O)c2c1C,11%[15.4 µM],12%,0%,25,-7,3.7,-3.1%
O=C(CC1CCCC1)N1CCN(S(=O)(=O)c2c(F)cccc2F)CC1,-16%,x,x,x,-5,x,1.7%
Cc1ccc(S(=O)(=O)NC2CCCCCC2)cc1C(N)=O,-11%,7%,2%,u,-5,-5.6,0.2%
O=c1nc(Nc2ccc(Br)cc2)sc2ccc([N+](=O)[O-])cc12,8%,u,-21%,-2,-22,-1.1,-1.7%
Cc1ccc(C)c2[nH]c(=O)c(CN(Cc3cccnc3)C(=S)NCc3ccco3)cc12,3%,-20%,-17%,4,-11,4.2,-26%
O=C(CCCc1nc2ccccc2s1)NCc1ccccc1,5%,9%,-2%,-22,-14,-0.1,-4.6%
COc1cc(SC)ccc1C(=O)NCCN1CCOCC1,-4%[15.4 µM],-8%,7%,x,-15,1.9,-0.4%
O=C1CC(Sc2nnnn2C2CCCCC2)C(=O)N1c1ccccc1 (stereo not given),u,u,9%,-5,-8,-0.3,-0.1%
COc1cccc(CN(C)CC(=O)Nc2ccccc2N2CCOCC2)c1OC,-26%,7%,1%,-12,6,0.6,-0.2%
Cc1ccc(S(=O)(=O)N2CCN(C(=O)C3CSC4(C)CCC(=O)N34)CC2)cc1C (stereo not given),-59%[inhibitor],x,13%,19,-8,x,-20%
C=CCc1cc(C)ccc1OCCOCCn1ccnc1,10%[15.4 µM],-18%,6%,-3,-5,3.4,-1.8%
Cc1cc(=O)[nH]c(SC(C)C(=O)Nc2cccc3ccccc23)n1 (stereo not given),10%,8%,3%,13,2,-3.0,x
COc1ccc(C(=O)N2N=C3CC(C)(C)OCC3C2c2ccccc2)cc1 (stereo not given),-17%[15.4 µM],13%,3%,-5,18,6.6,1.1%
Cn1nnnc1SCC(=O)Nc1ccccc1Cl,15%,15%,-3%,-2,-12,0.9,-5.8%
Cn1cc(/C=N/n2cnc3scc(-c4ccc(Cl)cc4)c3c2=O)c2ccccc21,-27%,u,30%,-3,1,-0.1,-14%

# Continuation.
SMILES,gsp ag,Sfp PPTase inh,gsp antagonist,TRPV1 potentiator,D2 potentiator,Menin MLL FP FL,ClpP mod
Nc1cc(N)nc(SCC(=O)Nc2ccc(Br)cc2Cl)n1,10%,12%,10%,u,17,0.2,0.1%
Cc1nn(C(C)C(=O)Nc2sc3c(c2C#N)CCCC3)c(C)c1[N+](=O)[O-] (stereo not given),-36%[inhibitor],19%,-12%,-10,-17,-0.8,0.6%
O=[N+]([O-])c1ccc(-[n+]2nc(-c3ccccc3)nn2-c2ccccc2)cc1,-48%[inhibitor],12%,15%,-12,-4,0.8,x
NC(=S)NC(=O)c1ccccc1,3%,-2%,6%,12,-2,1.0,x
COc1c(Cl)cc(-c2noc(C)c2C(=O)NCc2ccc3c(c2)OCO3)cc1Cl,u,10%,u,2,-2,2.5,-0.8%
CSc1cc(-c2ccc(Cl)cc2)c(C(=O)NN)s1,4%,15%,14%,x,2,0.0,-6.3%
CCC(COC)NC(=O)CCc1nnc(Cc2c[nH]c3ccccc23)o1 (stereo not given),2%,-8%,-4%,-5,-4,1.6,-1.5%
CCCc1cc(=O)[nH]c(SCC(=O)Nc2ccc(OC)c(S(=O)(=O)N3CCCCC3)c2)n1,-5%,x,3%,x,-4,x,1.7%
Cc1ccc(C)c(C(=O)COC(=O)Cn2[nH]c(=O)c3ccccc3c2=O)c1,-13%,x,4%,3,-6,x,1.0%
Cc1nc(N2CCOCC2)c2c(C)c(C(=O)Nc3ccc(C(F)(F)F)cc3)sc2n1,8%[15.4 µM],-7%,u,-15,-2,0.1,x
CCOc1ccc(CCNC(=O)c2c(C)noc2C)cc1OCC,10%,x,23%,-5,-6,x,-0.4%
COc1ccc(OC)c(NC(=O)c2ccc(Cl)cc2)c1,2%[15.4 µM],9%,-6%,4,-4,5.7,x
CCC(C)c1ccc(C2C3=C(Nc4nc(N)[nH]c(=O)c42)c2ccccc2C3=O)cc1 (stereo not given),u,10%,7%,2,-7,1.3,-2.2%
COc1ccc(CN(CC2CCCO2)C(=O)CN2C(=O)COc3ccccc32)cc1OC (stereo not given),-38%[inhibitor],-14%,-11%,-1,-16,-0.6,0.5%
CCCCCCn1c(=O)n2n(c1=O)C[C@]1(OC(=O)Nc3c(C)noc3C)CN(S(=O)(=O)c3ccc(C)cc3)C[C@]1(O)C2,24%,x,x,x,0,x,-0.2%

# Next part, starting with the last 2 of the part before.
SMILES,gsp ag,Sfp PPTase inh,gsp antagonist,TRPV1 potentiator,D2 potentiator,Menin MLL FP FL,ClpP mod
COc1ccc(CN(CC2CCCO2)C(=O)CN2C(=O)COc3ccccc32)cc1OC (stereo not given),-38%[inhibitor],-14%,-11%,-1,-16,-0.6,0.5%
CCCCCCn1c(=O)n2n(c1=O)C[C@]1(OC(=O)Nc3c(C)noc3C)CN(S(=O)(=O)c3ccc(C)cc3)C[C@]1(O)C2,24%,x,x,x,0,x,-0.2%
CCOc1ccccc1NC(=O)CSc1nc2ccccc2nc1N1CCCC1,-39%[inhibitor],-19%,-6%,18,-6,0.6,u
O=C(CCCCCNC(=O)c1ccccc1)N/N=C/c1ccco1,-43%[inhibitor],0%,1%,7,-4,-4.6,x
O=C(CN1CCN(C(c2ccccc2)c2ccccc2)CC1)N1CCN(c2ccccc2)CC1,-9%,-13%,-19%,-28,-32,1.6,2.6%
O=C1CCC(C(=O)OCc2nnc(-c3ccc(Cl)cc3)o2)=NN1,-1%,x,6%,-3,4,x,-0.5%
O=C(CCNC(=O)C1CCN(S(=O)(=O)c2ccc(F)cc2)CC1)NC1CC1,u,12%,12%,24,-6,0.3,-0.1%
N/C(=N\OC(=O)CCn1cccc(C(F)(F)F)c1=O)c1ccc(Cl)cc1,-6%[15.4 µM],-3%,-7%,x,-8,-0.5,x
Cc1nn(-c2ccccc2)c(C)c1C(=O)OCC(=O)Nc1ccccc1F,-28%,x,-9%,14,-2,x,-0.5%
N=c1c(C(=O)NCc2ccc(F)cc2)cc2c(=O)n3ccccc3nc2n1Cc1cccnc1,6%,6%,-3%,-8,-19,-6.3,7.1µM*
CS(=O)(=O)N(CC(=O)Nc1cccc([N+](=O)[O-])c1)c1ccccc1,-87%[inhibitor],14%,2%,0,-7,1.2,-1.8%
CCCCC(=O)Oc1c(S(=O)(=O)c2ccc(C)cc2)c(C)nn1C(C)(C)C,14%,5%,-3%,18,-15,-2.9,1.1%
COc1ccc(C2=CC(=O)C[C@H](c3ccc(OC)cc3)C2)cc1,1%,x,-21%,-12,-8,x,-3.0%
C#CCn1c(-c2cccs2)nc2ccccc21,u,16%,3%,-5,-20,-2.6,4.7%
O=C(NC1CCCC1)C(c1ccccc1)N(C(=O)c1csnn1)c1ccccc1F (stereo not given),-23%,13%,-4%,-1,-6,-0.4,x
CCOc1ccc(N(CC)S(=O)(=O)c2ccc3c(c2)n(C)c(=O)c(=O)n3C)cc1,9%,28%,8%,x,-5,4.3,u
Cc1cc(C)n(-c2nnc(C)n2/N=C/c2ccc(O)cc2)n1,-8%[15.4 µM],-1%,4%,-6,-5,-3.8,x
